Sfp PPTase inh = inhibitors of Bacillus subtilis Sfp phosphopantetheinyl transferase. Q9F4F7. Biochemical Sfp PPTase activity, qHTS. Potency, µM, inactives show max response, negative = inhibition, most hits filed as inhibitors. 310,000 tested, 3.5% active. AID 1490; active = well fitted inhibition curve with a large enough effect; inconclusive = small, poorly fitted or top-dose-only effect, or another doubt; inactive = no such curve, though single readings can be large or run the other way;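 note: the enzyme is Sfp with the accession as filed and its product quenches rhodamine fluorescence; 0% = enzyme reaction without inhibitor and -100% = no enzyme wells; top concentration of the series not given in the record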
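Compounds were incubated with enzyme (final 15 nM) for 15 min at room temperature before substrate addition started the reaction. Fluorescence at 525 nm excitation, 598 nm emission was recorded immediately and after 30 minutes.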
* hit, by the source's call; ? = inconclusive; & = joins results of further samples; ! = not active in a repeat; [ ] = remark or other dose. Potency is the fitted concentration of half-maximal effect. The list is partial, so the mix of outcomes need not match the whole.

SMILES | Sfp PPTase inh
CC(C)=NO[C@@H](C)c1cn([C@@H]2COC[C@@H]2O)nn1 | 3%
CSCC[C@H](NC(=O)[C@H](CC(C)C)NC(=O)[C@H](CO)NC(=O)[C@H](CCC(=O)O)NC(=O)[C@H](CC(C)C)NC(=O)[C@H](Cc1ccc(O)cc1)NC(=O)[C@H](CCCCN)NC(=O)[C@H](CCCCN)NC(=O)[C@H](C)NC(=O)[C@H](CO)NC(=O)[C@H](CC(C)C)NC(=O)[C@H](CCC(N)=O)NC(=O)CNC(=O)[C@H](CC(C)C)NC(=O)[C@H](CC(C)C)NC(=O)[C@H](CCCCN)NC(=O)[C@H](CO)NC(=O)[C@H](Cc1ccccc1)NC(=O)[C@H](CC(=O)O)NC(=O)[C@H](CO)NC(=O)[C@@H](NC(=O)[C@H](Cc1ccccc1)NC(=O)[C@@H](NC(=O)CNC(=O)[C@H](CC(=O)O)NC(=O)[C@H](C)NC(=O)[C@@H](N)Cc1cnc[nH]1)C(C)C)[C@@H](C)O)C(N)=O | 0%
CCCCc1c2ccccc2nc2[nH]c3ccccc3c12 | 15%
COc1ccc2[nH]c(S(=O)Cc3ncc(C)c(OC)c3C)nc2n1 (stereo unspecified) | 45µM*
NC1(C(=O)O)CCC1 | ?
CSCC[C@H](NC(=O)[C@H](Cc1ccc(OS(=O)(=O)O)cc1)NC(=O)[C@@H](N)CC(=O)O)C(=O)NCC(=O)N[C@@H](Cc1c[nH]c2ccccc12)C(=O)N[C@@H](CCSC)C(=O)N[C@@H](CC(=O)O)C(=O)N[C@@H](Cc1ccccc1)C(N)=O | -14%
CCc1cccc2nc3c(c([Si](C)(C)C)c12)Cn1c-3cccc1=O | -20%
Cc1ccc(CNC(=O)C2(C(F)(F)F)C/C(=C\CCO)CCCO2)o1 (stereo unspecified) | 50µM*
CC1(C)OC2CC3C4CC(F)C5=CC(=O)CC[C@@]5(C)C4C(O)C[C@@]3(C)[C@]2(C(=O)CO)O1 (stereo partly specified) | -9%
O=C1CCN(CCc2ccccc2)CCN1C(CSc1ccc(Br)cc1)Cc1ccccc1 (stereo unspecified) | 12%
N[C@H](CO)Cc1cnc[nH]1 | -16%
CO[C@H]1COC(=O)C/C=C\[C@H](C)[C@@H](NS(=O)(=O)c2ccc(C)cc2)COC(=O)CCC[C@@H]1C | 5%
Cc1ccc(CNc2ncnc3ccc(-c4c(C)noc4C)cc23)cc1 | -3%
COc1c(O)cccc1O | 9%
COCC#Cc1ccc(C2NC(C(=O)O)CCC2C)cc1 (stereo unspecified) | 13%
CCN(CC)CCCn1c(-c2ccccc2)nc2c(NCc3ccccc3)nc(C)nc21 | 17%
COc1ccc2c(c1)C(=O)[C@H](OC(=O)NCCOc1ccccc1)[C@@H](c1ccc(OC)c(Br)c1)O2 | -27%
O=C(NCCNCCO)C1(C(F)(F)F)CC(CCc2ccccc2)CCCO1 (stereo unspecified) | -25%
O=c1oc(-c2ccc(C(F)(F)F)cc2)nn1Cc1cc(Cl)ccc1O | 1%
CCCCCCCCCCCCCC/C(C(=O)O)=C(\C)C(=O)O | -15%
Nc1c(S(=O)(=O)O)cc(Nc2cccc3ccccc23)c2c1C(=O)c1ccccc1C2=O | ?
CC12CCC=CC1C(c1ccc(C(F)(F)F)cc1)N(Cc1ccccc1)C2=O (stereo unspecified) | 11%
C[C@H](C[C@H](N)C(=O)O)C(=O)O | -8%&1%
COC(=O)N1C2=C(c3ccccc3[C@@H]1CC(=O)Nc1ccc3cc4ccccc4cc3c1)[C@@H]1C(=O)N(c3ccccc3)C(=O)[C@@H]1[C@H](C)C2 | 23%
COC(=O)C1C2CC3c4[nH]c5cc(OC)ccc5c4CCN3CC2CC(OC)C1OC (stereo unspecified) | -24%
COc1cc(C=O)c([N+](=O)[O-])cc1OC | -4%
Nc1ccc2cc3ccc(N)cc3nc2c1 | -24%
Cn1nnnc1SCC1=C(C(=O)O)N2C(=O)[C@@H](NC(=O)[C@@H](O)c3ccccc3)[C@@H]2SC1 | -17%
COc1ccc(C([O-])=Nc2ccc[n+](-c3nc4ccccc4nc3NS(=O)(=O)c3ccccc3)c2)cc1 | 6%
N[C@H](Cn1ccc(=O)n(Cc2ccccc2C(=O)O)c1=O)C(=O)O | 71µM*
CC(C)C[C@H](NC(=O)[C@@H]1CCCN1C(=O)[C@H](Cc1ccccc1)NC(=O)[C@H](C)NC(=O)[C@H](CCC(=O)O)NC(=O)[C@H](C)NC(=O)[C@H](CO)NC(=O)[C@H](CCC(=O)O)NC(=O)[C@H](CC(=O)O)NC(=O)[C@H](CCC(=O)O)NC(=O)[C@H](C)NC(=O)CNC(=O)[C@H](CC(N)=O)NC(=O)[C@@H]1CCCN1C(=O)[C@H](Cc1ccc(O)cc1)NC(=O)[C@@H](NC(=O)[C@H](CCCCN)NC(=O)[C@@H](NC(=O)[C@@H]1CCCN1C(=O)[C@@H](N)CCCNC(=N)N)C(C)C)C(C)C)C(=O)N[C@@H](CCC(=O)O)C(=O)N[C@@H](Cc1ccccc1)C(=O)O | 5%
O=C(O)c1cc2ccccc2c(Cc2cc3ccccc3c(C(=O)O)c2O)c1O (tested in a mixture with another compound) | 15%
Nc1ncnc2c1ncn2[C@@H]1O[C@H](COP(=O)(O)OP(=O)(O)O)[C@@H](O)[C@H]1O | 50µM*!
N#CCCCS(=O)(=O)c1nnnn1-c1ccc(Br)cc1 | 1%
CC(C)[C@@H](CC(=O)N[C@@H]1CCNC[C@H]1C(=O)N[C@H](CC(=O)N[C@@H](CCC(=O)O)CC(=O)O)Cc1ccccc1)NC(=O)C[C@H](Cc1c[nH]c2ccccc12)NC(=O)[C@@H]1CCCC[C@H]1N | -16%
COc1ccc(-c2cc(=O)c3c(OC(C)=O)cc(OC(C)=O)cc3o2)cc1 | -2%

Sorted by length of the SMILES (descending): part of the list above.
SMILES | Sfp PPTase inh
Cn1nnnc1SCC1=C(C(=O)O)N2C(=O)[C@@H](NC(=O)[C@@H](O)c3ccccc3)[C@@H]2SC1 | -17%
COc1ccc(C([O-])=Nc2ccc[n+](-c3nc4ccccc4nc3NS(=O)(=O)c3ccccc3)c2)cc1 | 6%
Nc1ccc2cc3ccc(N)cc3nc2c1 | -24%

Entries listed above marked active in Sfp PPTase inh:
SMILES | Sfp PPTase inh
COc1ccc2[nH]c(S(=O)Cc3ncc(C)c(OC)c3C)nc2n1 (stereo unspecified) | 45µM*
Cc1ccc(CNC(=O)C2(C(F)(F)F)C/C(=C\CCO)CCCO2)o1 (stereo unspecified) | 50µM*
N[C@H](Cn1ccc(=O)n(Cc2ccccc2C(=O)O)c1=O)C(=O)O | 71µM*
Nc1ncnc2c1ncn2[C@@H]1O[C@H](COP(=O)(O)OP(=O)(O)O)[C@@H](O)[C@H]1O | 50µM*!

Following part.
SMILES | Sfp PPTase inh
C=CCN1CCN(c2nc3ccccc3nc2C#N)CC1 | 56µM*!
COC(=O)c1ccc(C(NC(=O)OCc2ccccc2)/C(F)=C/[C@@H](C)C(=O)NC2CCCCC2)cc1 (stereo partly specified) | 33%[activator]
COc1ccc(C2CC(c3ccccc3)Oc3cc4c(cc32)OCO4)cc1 (stereo unspecified) | 45µM*!
O=S(=O)(CCc1ccccc1)c1ccccc1 | -15%
CC1CC=CC2C1C(=O)N(Cc1ccccc1)C2c1ccc(-c2cc3ccccc3s2)cc1F (stereo unspecified) | 9%
C=C(C)C(O)/C=C/c1ccc(C)cc1 (stereo unspecified) | 8%
CCOC(=O)OCC1OC(C#CC(C)(C)C)C=CC1OC(=O)OCC (stereo unspecified) | 30%[activator]
COC(=O)[C@@H]1C[C@H]2CC[C@H](O)C[C@H]2N1Cc1c(F)cccc1Cl | 7%
COC(=O)NC(CC(C)=O)c1cccs1 (stereo unspecified) | 9%
CC(C)C[C@@H](CC(=O)N[C@@H](CCCN)CC(=O)N[C@@H]1CCCC[C@H]1C(=O)N[C@H](CC(=O)N[C@@H](CCC(=O)O)CC(=O)O)Cc1ccccc1)NC(=O)[C@@H]1CNCC[C@H]1N | -8%
CCC[C@@H]1C[C@@]1(CCC)C(NC(=O)c1ccc(-c2ccccc2)cc1)c1cccc(Cl)c1 (stereo partly specified) | 27%
CC[C@H](C)[C@@H](NC(=O)O[C@@H]1C(=O)c2ccc(OC)cc2O[C@H]1c1ccc2c(c1)OCO2)C(=O)OC | 10%
C[C@@H]1NC(=O)C/C=C\[C@@H](C)[C@@H]2C=C[C@H](O)[C@@H](COC(=O)[C@H](C)NC(=O)C/C=C\[C@@H](C)[C@@H]3C=C[C@H](O)[C@@H](COC1=O)O3)O2 | -10%
CC(C)OC(=O)Nc1ccc2nc(-c3cscn3)[nH]c2c1 | 20%
CN(C)CCc1c[nH]c2ccc(CS(=O)(=O)N3CCCC3)cc12 | -4%
CCOC(=O)c1ccc(C#Cc2ccc3c(c2)C(C)(C)CCS3)nc1 | -14%
COc1ccc2c(c1)OCC(Cc1ccc(O)c(OC)c1)C2=O (stereo unspecified) | 2%
CC[C@@H](C)[C@@H](CO[C@@H](Cc1ccccc1)C(=O)N[C@@H](CCS(C)(=O)=O)C(=O)OC(C)C)NC[C@@H](N)CS | -27%&7%
CCC1(c2ccc(OC)cc2)NC(=O)N(C)C1=O (stereo unspecified) | 6%
CN1CCN(CC(=O)Nc2sc3c(c2C#N)CCC(C(C)(C)C)C3)CC1 (stereo unspecified) | 17%
COc1ccc(SCC(CC(C)C)N2CCN(C)CCC2=O)cc1 (stereo unspecified) | -2%
CCC1=C2CC[C@H]3C(=O)N(CC(=O)OC)C(=O)[C@H]3[C@H]2[C@@]2(Cc3ccccc3)C(=NCCc3c[nH]c4ccccc34)OC(=O)N2C1=O | 24%
COC/C=C/C1=CC2=CC(=O)C(C)(OC(=O)c3cnc4ccccc4n3)C(=O)C2=CO1 (stereo unspecified) | -16%
COC(=O)C/C=C/C(C)C(OC)c1ccccc1Br (stereo unspecified) | 15%

Some of the entries so far, as comma-separated lines.
smiles,Sfp PPTase inh
CC(C)OC(=O)Nc1ccc2nc(-c3cscn3)[nH]c2c1,20%
CN(C)CCc1c[nH]c2ccc(CS(=O)(=O)N3CCCC3)cc12,-4%

Next part
SMILES | Sfp PPTase inh
CCC/C=C1/CCCOC(C(=O)NCCOC)(C(F)(F)F)C1 (stereo unspecified) | 4%
CCC1=C2CC[C@H]3C(=O)N(C)C(=O)[C@H]3[C@H]2[C@@]2(Cc3ccccc3)C(=NCCc3c[nH]c4ccccc34)OC(=O)N2C1=O | 25%
CCCC[C@@H]1C[C@H]1C(NC(=O)c1ccccc1)c1ccc(C(=O)OC)cc1 (stereo partly specified) | 9%
CS(=O)(=O)NC(=O)CCC/C=C\C[C@H]1C(=O)C[C@@H](O)[C@@H]1/C=C/[C@@H](O)COc1ccccc1 | -18%
COc1cccc([C@@H]2Oc3ccc(Br)cc3C[C@H]2OC(=O)Nc2ccc(OC(F)F)cc2)c1 | -16%
Cc1c(C)c2c(c(C)c1OC(=O)c1cccnc1)CC[C@@](C)(CCC[C@H](C)CCC[C@H](C)CCCC(C)C)O2 | 7%&11%
COc1ccc(C2=Nn3c(nnc3-c3ccccc3O)SC2)cc1OC | 45µM*
Cc1nc(NC2CCCCC2)c2nc(-c3ccccc3)n(CCCN3CCCCC3C)c2n1 (stereo unspecified) | 16%
CCOC(=O)c1ccc(O)cc1 | 22%
COC(=O)NC(/C=C/c1ccccc1)C(C(C)=O)C(=O)OC (stereo unspecified) | -17%
COc1ccc2c(c1)c(CC(=O)NCc1ccc3c(c1)OCO3)c(C)n2C(=O)c1ccc(Cl)cc1 | 0%
CCCCc1cc2c(cn1)C(=O)C(C)(OC(C)=O)C(=O)C2 (stereo unspecified) | 15%
CC(=O)N1CC=CC1(CC(C)C)C(=O)O (stereo unspecified) | 20%
Cc1ccc(Sc2ccccc2CN(C)C)c(N)c1 | ?
COc1ccc(O[C@H]2C=C[C@@H](c3ccccc3)O[C@H]2COC(=O)CC/C(C)=N\O[C@@H](C)CN2CCCCc3nc(C)c(C)cc32)cc1 | 6%
Cc1nc(NCc2ccccc2)c2nc(-c3ccccc3)n(CCCN3CCOCC3)c2n1 | 9%
CC(=O)NCC(=O)N[C@H](CCC(=O)O)C(=O)O | -2%&15%
CO/N=C(/C)CCC(=O)OC[C@@H]1O[C@H](c2ccccc2)C=C[C@@H]1Oc1ccc(OC)cc1 | -5%
CC[C@H](C)[C@H](NC(=O)[C@H](CC(=O)O)NC(=O)[C@H](CC(C)C)NC(=O)[C@H](Cc1cnc[nH]1)NC(=O)[C@H](C)NC(=O)[C@H](Cc1ccccc1)NC(=O)[C@H](Cc1ccc(O)cc1)NC(=O)[C@@H](NC(=O)[C@H](C)NC(=O)[C@H](CCC(=O)O)NC(=O)[C@H](CCCCN)NC(=O)[C@H](CC(=O)O)NC(=O)[C@H](CCSC)NC(=O)[C@H](CC(C)C)NC(C)=O)C(C)C)C(=O)N[C@H](C(=O)N[C@@H](Cc1c[nH]c2ccccc12)C(=O)O)[C@@H](C)CC | 1%
CC(=O)[C@H]1CC[C@H]2[C@@H]3C=CC4=CC(=O)CC[C@@]4(C)[C@H]3CC[C@]12C | 22%
C[C@H]1C2=C3C(CC[C@H]4C(OCc5ccc(F)cc5C(F)(F)F)OC[C@](C)([C@@H]34)N(C(=O)OC(C)(C)C)C2)C2COC(=O)OCC21 (stereo partly specified) | 11%
CC(=O)OC[C@@H]1O[C@H](C/C=N\OCC[C@H]2C=C[C@H](OC(C)=O)[C@@H](COC(C)=O)O2)C=C[C@@H]1OC(C)=O | 20%
NC(=O)NNc1ccccc1 | 11%&8%

Source: PubChem BioAssay
